Screening results: PubChem BioAssay, National Center for Advancing Translational Sciences (NCATS)
EPAC2 antag = human EPAC2 antagonism, validation | 16,000 compounds, 1.7% hits | AID 1645886 | Q8WZA2 | EPAC2 Rap1B BODIPY-GDP exchange, fluorescence | Potency, µM (top dose mostly 112 µM), for inactives: top-dose activity, negative = inhibition, usual class: inhibitors; active = well fitted inhibition curve with a large enough effect; inconclusive = small, poorly fitted or top-dose-only effect; inactive = no such curve, though single readings can be large or run the other way;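 note: 100% = activation by cAMP agonist control; nearly all actives have a fitted effect of over 40% in size; the record reuses the description of the EPAC1 agonist screen; inactives centre near -10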
Target sequence (Q8WZA2 whole entry, looked up): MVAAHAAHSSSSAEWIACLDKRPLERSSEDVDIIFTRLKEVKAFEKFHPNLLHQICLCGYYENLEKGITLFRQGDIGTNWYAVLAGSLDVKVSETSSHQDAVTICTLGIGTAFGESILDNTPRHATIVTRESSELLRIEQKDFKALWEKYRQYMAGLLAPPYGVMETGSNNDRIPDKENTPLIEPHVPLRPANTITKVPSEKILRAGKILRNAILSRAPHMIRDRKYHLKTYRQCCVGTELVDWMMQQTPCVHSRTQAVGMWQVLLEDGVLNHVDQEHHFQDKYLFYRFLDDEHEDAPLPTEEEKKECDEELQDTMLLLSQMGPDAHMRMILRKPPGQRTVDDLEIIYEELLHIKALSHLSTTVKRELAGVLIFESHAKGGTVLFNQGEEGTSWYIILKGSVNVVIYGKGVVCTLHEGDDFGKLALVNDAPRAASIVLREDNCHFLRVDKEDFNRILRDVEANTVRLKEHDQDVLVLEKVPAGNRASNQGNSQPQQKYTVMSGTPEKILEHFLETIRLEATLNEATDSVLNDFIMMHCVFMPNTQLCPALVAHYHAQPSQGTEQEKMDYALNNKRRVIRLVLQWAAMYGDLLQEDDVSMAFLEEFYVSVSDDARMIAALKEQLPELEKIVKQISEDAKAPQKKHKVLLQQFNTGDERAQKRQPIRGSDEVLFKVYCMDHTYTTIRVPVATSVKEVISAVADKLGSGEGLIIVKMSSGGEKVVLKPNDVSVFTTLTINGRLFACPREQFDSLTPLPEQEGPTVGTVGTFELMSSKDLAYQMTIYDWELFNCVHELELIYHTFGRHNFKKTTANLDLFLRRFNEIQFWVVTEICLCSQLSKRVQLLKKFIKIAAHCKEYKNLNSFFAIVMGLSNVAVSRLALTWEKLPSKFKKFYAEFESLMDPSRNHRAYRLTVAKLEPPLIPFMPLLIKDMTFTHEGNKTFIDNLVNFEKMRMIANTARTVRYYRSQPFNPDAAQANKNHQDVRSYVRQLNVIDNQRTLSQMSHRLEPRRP
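Fluorescent exchange read-out: 100 nM EPAC2 with 250 nM RAP1B–BODIPY-GDP and 50 uM GDP; BODIPY-GDP release lowers fluorescence. Read at 480/540 nm every 5 min for 30 min at room temperature; normalized to 6.5 mM cAMP.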
The depositor's hits bear a star; ? = inconclusive; & = joins results of further samples; [ ] = remark or other dose. Potency is the fitted concentration of half-maximal effect. These rows are one share of the data, so the mix of outcomes need not match the whole.

SMILES	EPAC2 antag
O=C(O)C[C@H](O)C[C@H](O)/C=C/c1c(C2CC2)nc2ccccc2c1-c1ccc(F)cc1	-14%
Cc1ccc(SCCN2CCC(O)CCC2=O)cc1 (centres undefined)	8%
C[N+](C)(C)CCCCCNCC12CC3CC(CC(C3)C1)C2	-16%
Cc1ccccc1-c1cncnc1NCc1cccnc1	-27%
COc1ccccc1O	?
COC(=O)C1=C(C)NC(C)=C(C(=O)O[C@H]2CCN(Cc3ccccc3)C2)[C@H]1c1cccc([N+](=O)[O-])c1	-11%
C[C@H]1C[C@]2(O[C@@H]2C)C(=O)O[C@@H]2CCN(C)C/C=C(/COC(=O)[C@]1(C)O)C2=O	-10%
O=C(O)[C@H](O)c1ccccc1	-12%
CC(C)CN1CC2(CCN(S(=O)(=O)c3ccccc3)CC2)C1	-28%
CCC1CN(CC(=O)NCc2ccc3c(c2)OCO3)Cc2ccc(Cl)cc2O1 (centres undefined)	?

Some of these compounds in order of length of the SMILES, smallest number first:
SMILES	EPAC2 antag
COc1ccccc1O	?
CCC1CN(CC(=O)NCc2ccc3c(c2)OCO3)Cc2ccc(Cl)cc2O1 (centres undefined)	?
C[C@H]1C[C@]2(O[C@@H]2C)C(=O)O[C@@H]2CCN(C)C/C=C(/COC(=O)[C@]1(C)O)C2=O	-10%

(cont.)
SMILES	EPAC2 antag
c1nc(NC2CCNCC2)c2cc(-c3ccc4c(c3)OCO4)ccc2n1	-5%
COc1cc(C2c3cc4c(cc3C(OC3OC5COC(C)O[C@@H]5C(O)C3O)C3COC(=O)C23)OCO4)cc(OC)c1O (some centres undefined)	2%
CNC1C(O)C(O[C@H]2C(O)[C@@H](OC3OC(CN)=CCC3N)[C@H](N)C[C@@H]2N)OC[C@]1(C)O (some centres undefined)	-9%
O=c1c(-c2ccc(Cl)cc2)nc2cncnc2n1Cc1ccccc1	-28%
NCCC[C@@H](N)C(=O)O	-3%
CCC1COCCS(=O)(=O)N1Cc1ccccc1 (centres undefined)	8%
COc1cccc(Nc2ncc3nc(CCc4ccccc4)c(=O)n(CCC#N)c3n2)c1	-18%
CN(C)c1ccc(-c2nc(Nc3ccncc3)c3ccccc3n2)cc1	-15%
CC[C@@H](C)[C@H]1O[C@]2(CC[C@H]1C)C[C@@H]1C[C@@H](CC=C(C)[C@@H](O[C@H]3C[C@H](OC)[C@@H](O[C@H]4C[C@H](OC)[C@@H](O)[C@H](C)O4)[C@H](C)O3)[C@@H](C)C=CC=C3CO[C@@H]4[C@H](O)C(C)=C[C@@H](C(=O)O1)[C@]34O)O2	?
O=C(NCCN1Cc2ccccc2OC(c2ccccc2F)C1)c1ccco1 (centres undefined)	-23%
CC(C)(C)c1ccc(CN2CCN(C(c3ccccc3)c3ccc(Cl)cc3)CC2)cc1 (centres undefined)	-20%
CCCCCCCCN1[C@@H](CC(C)=O)c2cc(C(F)(F)F)ccc2S1(=O)=O	?
COc1cc2c(cc1OC)C1C(=O)c3c(cc4c(c3O)C=CC(C)(C)O4)OC1CO2 (centres undefined)	-19%
CC(C)C1=CC2=CC[C@@H]3[C@](C)(CCC[C@@]3(C)C(=O)O)[C@H]2CC1	10%
COc1ccc(-c2[nH]ncc2CN2CCOc3c(cc(-c4cccc(OC)n4)cc3OC)C2)cc1	6%
COc1c2ccoc2nc2c(OC)c(OCC(O)C(C)(C)O)ccc12 (centres undefined)	-17%&-9%
COC(=O)N1CCC[C@@]2(CCN(Cc3cc(C(F)(F)F)cc(C(F)(F)F)c3)C2)C1	-11%
CCCCCC(=O)O[C@H](CC(=O)O)C[N+](C)(C)C	-30%
COc1c2c(nc3occc13)C(CC=C(C)C)(OC)C(=O)C=C2 (centres undefined)	1%
O=C1CCN(Cc2ccccc2)CCN1[C@H](CO)c1ccccc1	?
O=c1cnc2cnc(Nc3ccccc3)nc2n1C1CC1	-8%
CC(=O)Nc1ccccc1-c1nc(CNC(=O)c2ccc(F)c(F)c2)c(C)o1	-12%
COCCn1c(=O)c(-c2ccccc2)nc2cnc(N(C)C)nc21	7%
N#CCCn1c(=O)c(-c2cc(F)cc(F)c2)nc2cnc(Oc3cccc(Cl)c3)nc21	-2%
COc1cccc(-c2nc3cc4c(cc3cc2CN(C(=O)c2cccs2)C2CC2)CCC4)c1OC	?
Cn1c(=O)c(-c2ccccc2)nc2cnc(OCc3ccccc3)nc21	-10%
COc1cc(OC)c2c(=O)c(OC)c(-c3ccc(OC)c(OC)c3)oc2c1	-13%
Nc1ncnc(Nc2ccc(Cl)cc2)n1	-18%
COc1ccc(-n2c(=O)c(-c3ccc(F)cc3)nc3cnc(N4CCNCC4)nc32)cc1	0%
CN(C)c1ccc(C=O)c(Cl)c1	-6%

A stretch from further up, for reference:
SMILES	EPAC2 antag
COc1ccc(-n2c(=O)c(-c3ccc(F)cc3)nc3cnc(N4CCNCC4)nc32)cc1	0%
CN(C)c1ccc(C=O)c(Cl)c1	-6%

Carrying on.
SMILES	EPAC2 antag
COc1cc(-c2noc(C)c2-c2ccc(N(C)C)nc2)cc(OC)c1OC	?
c1cncc(CNc2ncncc2-c2cccnc2)c1	-14%
C/C(=C(\CCOP(=O)(O)O)SC(=O)c1ccccc1)N(C=O)Cc1cnc(C)nc1N	-8%[56.6 µM]
Clc1ccccc1-c1nc(-c2ccncc2)no1	1%
CCNc1ncc2nc(-c3ccc(Cl)cc3)c(=O)n(Cc3cccc(OC)c3)c2n1	-20%
CC(C)C(NS(C)(=O)=O)c1nnc2n1CCN(Cc1ccc(C#CC(C)(C)O)cc1)CC2 (centres undefined)	-5%
CCCCCCCCCCCCCCCC(C)C1=NCCN1 (centres undefined)	?
Oc1ccc(Cl)c2cccnc12	-14%&1%
O=C(NCC1Cc2cccc(-c3cnccn3)c2O1)C1COc2ccccc2O1 (centres undefined)	-5%
O=c1cc(-c2ccccc2O)oc2c(O)c(O)ccc12	-5%
COc1cc(C(O)CO)ccc1OS(=O)(=O)O (centres undefined)	-7%
Cc1noc(C)c1CC(=O)NCC1Cc2cc(-c3cccc(OC(F)(F)F)c3)ccc2O1 (centres undefined)	?
CC(=O)O[C@H](CC(=O)O)C[N+](C)(C)C	-37%
CNc1ncnc2c1ncn2[C@H]1C[C@H](O)[C@@H](CO)O1	-12%
CNc1nc(-c2cccc(NS(C)(=O)=O)c2)nc2ccccc12	-6%
COCC(=O)N1CCC2(CC1)CCN(c1ncccn1)CC2	-10%
CON=C1C[C@]2(C[C@@H]3C[C@@H](C/C=C(\C)C[C@@H](C)/C=C/C=C4\CO[C@@H]5[C@H](O)C(C)=C[C@@H](C(=O)O3)[C@]45O)O2)O[C@H](/C(C)=C/C(C)C)[C@H]1C	?
O=C(c1cccc(F)c1)N(Cc1cc2cc3c(cc2nc1N1CCOCC1)CCC3)CC1CCCO1 (centres undefined)	3%
NCC[C@H](O)C(=O)N[C@@H]1C[C@H](N)[C@@H](O[C@H]2O[C@H](CN)CC[C@H]2N)[C@H](O)[C@H]1O[C@H]1O[C@H](CO)[C@@H](O)[C@H](N)[C@H]1O	-3%
CC(=O)SC[C@@H](Cc1ccccc1)C(=O)NCC(=O)OCc1ccccc1	-14%[56.6 µM]
CCOC(=O)C1=CC2(CC)CCCN3CCc4c(n1c1ccccc41)C32 (centres undefined)	?
COc1ccc(CN2CCN(C(C)=O)CC2)cc1OC1CCN(C(=O)c2ccc3[nH]c(C)c(C)c3c2)CC1	1%
CC[C@H]1OC(=O)[C@H](C)[C@@H](O[C@H]2C[C@@](C)(OC)[C@@H](O)[C@H](C)O2)[C@H](C)[C@@H](O[C@@H]2O[C@H](C)C[C@H](N(C)C)[C@H]2O)[C@](C)(O)C[C@@H](C)[C@@H]2N[C@@H](COCCOC)O[C@@H]([C@H]2C)[C@]1(C)O	15%
CO[C@H]1[C@H](NC(=O)c2cccc(F)c2)c2ccccc2C12CCN(Cc1ccco1)CC2	-13%
CCCN1CCC(=O)N(CCC#N)CC1	-7%
OCCO[C@@H]1[C@@H](O)[C@H](O)[C@@H](CO)O[C@@H]1O	16%
CCCC(=O)Nc1ccc(OCC(O)CNC(C)C)c(C(C)=O)c1 (centres undefined)	-1%
CC(=O)C1=C(O)C=C2Oc3c(C(C)=O)c(O)c(C)c(O)c3[C@]2(C)C1=O	-10%
CN1C[C@@H]2C[C@H]1CN2c1cc2c(cc1F)c(=O)c(C(=O)O)cn2C1CC1	18%
O=S(=O)(c1cccc2c(Cl)cccc12)N1CCCNCC1	-8%&-30%&-27%
COc1cc(/C=C/CN2CCOc3ccc(C(O)c4cccnc4)cc3C2)ccc1O (centres undefined)	-3%
CC(C)NC(=O)N1CC[C@@]2(CCCN(C(=O)c3cc(C(F)(F)F)cc(C(F)(F)F)c3)C2)C1	-27%
CN(C)c1ncc2nc(-c3ccc(F)cc3)c(=O)n(CCc3ccccc3)c2n1	-3%
C[C@](N)(Cc1ccc(O)c(O)c1)C(=O)O	19%&-3%&-14%
O=P(O)(O)C(O)(Cc1cnc2ccccn12)P(=O)(O)O	-13%
CC1=C2C(=CO[C@H](C)[C@H]2C)C(=O)C(C(=O)O)=C1O	-1%
Cc1nc(-c2ccc(OCC(C)C)c(C#N)c2)sc1C(=O)O	-11%
Clc1ccc2c(c1)CCc1cccnc1C2=C1CCNCC1	-2%&-6%
Cc1cccc(CNc2ccnc(-c3ccccc3Cl)n2)c1	?
CCC1OC(=O)C(C)[C@@H](O[C@H]2C[C@@](C)(OC)C(O)C(C)O2)C(C)[C@@H](O[C@@H]2OC(C)CC(N(C)C)C2O)[C@@](C)(O)CC(C)C2NC(COCCOC)O[C@H](C2C)[C@@]1(C)O (some centres undefined)	-12%
COCc1c(C(=O)N2CCN(C3CCCCC3)CC2)cnn1-c1ncc(C)c(-c2cccs2)n1	-22%
CC(=O)N1CCC2(CCCN(c3ccc(-c4ccccc4)cc3)C2)CC1	?
Cc1occc(=O)c1O	-7%
COc1ccc2c(=O)c(C)c(-c3ccccc3)oc2c1CN(C)C	8%
Cc1noc(C)c1C(=O)N1CCC2(CCCN(Cc3ccc(C#N)cc3)C2)CC1	-19%
O=c1c(CCc2ccccc2)nc2cncnc2n1Cc1ccccc1Cl	-4%
COc1cccc(C(=O)NCCN2CCN(c3ccc(Cl)cc3)CC2)c1	-7%
CO[C@@]12[C@H](COC(N)=O)C3=C(C(=O)C(C)=C(N)C3=O)N1C[C@@H]1N[C@@H]12	-23%
COc1cc(OC)c2nc(-c3cc4c(c(OC)c3)OCCN(C(=O)CC3NC(=O)c5ccccc53)C4)cc(C)c2c1 (centres undefined)	-12%
CCCn1c(=O)c2[nH]c(-c3ccc(S(=O)(=O)O)cc3)nc2n(CCC)c1=O	?

(more compounds)
SMILES	EPAC2 antag
O=C(O)c1ccccc1Nc1cc(Cl)ccc1C(=O)O	17%
COc1cc2c(cc1OC)Cc1cc(OC)c(OC)cc1Cc1cc(OC)c(OC)cc1C2	-14%
Cc1noc(C)c1C(=O)N1CCC2(CC1)CN(Cc1cc(C(F)(F)F)cc(C(F)(F)F)c1)C2	-11%
CN(Cc1ccco1)c1ncnc2ccc(-c3cccc(NS(C)(=O)=O)c3)cc12	-29%
CN1CCCC(CNC(=O)c2cnn(-c3ncc4c(n3)-c3ccccc3CC4)c2C2CC2)C1 (centres undefined)	1%
COc1cc(-c2cc(C)c3c(OC)ccc(OC)c3n2)cc2c1OCCN(C(=O)Cn1nc(C)cc1C)C2	-17%
OCC[N+]1(CCc2ccccc2)CCOCC1	0%
COc1ccc(-c2nc3cnc(N4CCN(C)CC4)nc3n(Cc3cccc(OC)c3)c2=O)cc1	-11%
CC(C)C[C@@H](CN=[N+]=[N-])N1CCN(Cc2ccccc2)CCC1=O	-3%
N#Cc1ccc(CN2CC3(CCN(C(=O)c4csnn4)CC3)C2)cc1	-18%

Retrieved by compound from the list above, six records:
SMILES	EPAC2 antag
COc1cccc(-c2nc3cc4c(cc3cc2CN(C(=O)c2cccs2)C2CC2)CCC4)c1OC	?
CN1C[C@@H]2C[C@H]1CN2c1cc2c(cc1F)c(=O)c(C(=O)O)cn2C1CC1	18%
O=P(O)(O)C(O)(Cc1cnc2ccccn12)P(=O)(O)O	-13%
CN(C)c1ncc2nc(-c3ccc(F)cc3)c(=O)n(CCc3ccccc3)c2n1	-3%
Oc1ccc(Cl)c2cccnc12	-14%&1%
COc1cc(C2c3cc4c(cc3C(OC3OC5COC(C)O[C@@H]5C(O)C3O)C3COC(=O)C23)OCO4)cc(OC)c1O (some centres undefined)	2%

Following part
SMILES	EPAC2 antag
N=C(N)c1ccc(OCCCCCOc2ccc(C(=N)N)cc2)cc1	11%&0%
CCOc1ccc2nc(N3CCCC3C(=O)N3CCC(c4nc5ccccc5o4)CC3)nc(C)c2c1 (centres undefined)	3%
CS(=O)(=O)Nc1cccc(-c2nc(NCCN3CCOCC3)c3ccccc3n2)c1	-10%
COC(=O)c1ccccc1-c1cc(C)cc2c1OC(CNC(=O)c1cnc(C)cn1)C2 (centres undefined)	2%
S=c1[nH]c2ccccc2s1	-21%
O=C(NCC1Cc2cccc(-c3cnccn3)c2O1)c1ccc(F)c(Cl)c1 (centres undefined)	-13%
O=c1c(-c2cccs2)nc2cnc(Oc3ccccc3)nc2n1-c1ccccc1	?
COc1ccc(CCN(C)CCc2ccc(OC)c(OC)c2)cc1OC	-21%
O=C(CCN1Cc2ccccc2OC(c2ccccc2F)C1)N1CCC(N2CCCC(O)C2)CC1 (centres undefined)	?
